# SARS PLpro yeast: blocks SARS-CoV papain-like protease in a yeast assay. Potency, µM (titrated, usually from 32.9 µM), inactives show at the highest dose activity, positive = growth rescue. S. cerevisiae expressing SARS-CoV PLpro, growth rescue; control for the full effect not named in the record. AID 485353. 0.19% of 330,000 active; active means well fitted rising curve with a large enough effect; inconclusive means small, poorly fitted or top-dose-only effect; inactive means no such curve, though single readings can be large or run the other way; further: 0% is about no effect; nearly all actives have a fitted effect of over 55% in size; growth read by luminescence after 48 h
# StopGo reporter: FMDV 2A StopGo reporter, luciferase signal. human cells with a luciferase reporter of 2A StopGo recoding; control for the full effect not named in the record. Potency, µM (top dose mostly 57.9 µM), without a hit: at the top dose signal change, negative = less light. 1.2% of 410,000 active. AID 1159524; active = well fitted falling curve with a large enough effect; inconclusive = small, poorly fitted or top-dose-only effect; inactive = no such curve, though single readings can be large or run the other way; tested in HEK293T cells; further: on the % scale 0 is the no-effect control and ±100 the full control effect; nearly all actives have a fitted effect of over 45% in size; luciferase light after 4 h
# NS1 inh: influenza NS1 inhibition | Potency, µM (highest dose often 46.1 µM), without a hit: at the highest dose activity, positive = more growth | 0.4% of 270,000 active | S. cerevisiae slowed by influenza A NS1, growth recovery by OD600 | AID 2326; active means well fitted rising curve with a large enough effect; inconclusive means small, poorly fitted or top-dose-only effect; inactive means no such curve, though single readings can be large or run the other way; further: nearly all actives have a fitted effect of over 50% in size
#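 A cell-based growth assay was used: compounds that relieve NS1-induced slow growth of budding yeast raise OD600. Assay medium was yeast nitrogen base with ammonium sulphate and -URA supplement, pH 6.0, with 2% galactose.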
# MARV entry inh: blocks Marburg virus binding to or entry into cells | Marburg virus pseudotyped entry inhibition, cell reporter; control for the full effect not named in the record; about a third of the inactives were read at about 46 µM | Potency, µM (top dose mostly 37.8 µM), for the others: at the highest dose activity change, negative = inhibition, usual class: inhibitors | 1.8% of 300,000 active; active = well fitted inhibition curve with a large enough effect; inconclusive = small, poorly fitted or top-dose-only effect, or effect the other way; inactive = flat fitted curve, though single readings scatter; tested in HEK293 cells; about a fifth of its hits are not listed in these tables; further: on the % scale 0 is the no-effect control and ±100 the full control effect; luciferase read-out
# Cruzain inh Det: blocks cruzain activity in presence of Triton detergent; purified cruzain, Z-FR-AMC fluorescence, 0.01% Triton; Potency, µM, without a hit: max response, negative = inhibition, actives largely listed as inhibitors; 0.43% of 200,000 active; AID 1478;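 further: plate controls were neutral wells for no effect and buffer without enzyme for full effect; nearly all actives have a fitted effect of over 40% in size; top concentration of the series not given in the record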
# Target sequence (P25779 123-467 limits assumed): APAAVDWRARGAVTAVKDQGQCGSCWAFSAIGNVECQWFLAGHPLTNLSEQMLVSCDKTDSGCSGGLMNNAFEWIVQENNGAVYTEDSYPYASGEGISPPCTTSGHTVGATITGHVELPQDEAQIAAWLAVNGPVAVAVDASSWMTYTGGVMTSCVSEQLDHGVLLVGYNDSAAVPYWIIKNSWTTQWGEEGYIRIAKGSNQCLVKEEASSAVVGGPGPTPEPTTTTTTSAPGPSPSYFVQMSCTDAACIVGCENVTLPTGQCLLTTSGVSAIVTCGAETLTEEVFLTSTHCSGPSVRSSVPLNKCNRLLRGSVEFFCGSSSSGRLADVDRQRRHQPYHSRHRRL
#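 Sodium acetate buffer (100 mM, pH 5.5) containing 5 mM DTT and 0.01% Triton X-100 hosted 1.5 nM cruzain and test compound for 15 min at room temperature. Cleavage of 2 uM Z-FR-AMC was then tracked by fluorescence.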
# RE007 growth inh: less growth of the S. pombe RE007 Vpr strain. S. pombe RE007 Vpr strain, BacTiter-Glo ATP luminescence, 24 h; control for the full effect not named in the record. Potency, µM (top dose mostly 92.2 µM), without a hit: top-dose activity change, negative = less growth. 0.21% of 360,000 active. AID 651644; active = well fitted falling curve with a large enough effect; inconclusive = small, poorly fitted or top-dose-only effect; inactive = no such curve, though single readings can be large or run the other way;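 further: on the % scale 0 is the no-effect control and ±100 the full control effect; nearly all actives have a fitted effect of over 50% in size; the assay follows cell death caused by Vpr and the record does not say whether a fall means rescue or toxicity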
#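 Fission yeast strain RE007, carrying one chromosomally integrated HIV-1 vpr copy, was seeded at OD 0.01 in PMG+AL medium with 23 nL pinned compound. After 24 h at 30 °C and 99% humidity, viability was read by BacTiter-Glo luminescence.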
# Lassa entry inh: blocks Lassa virus binding to or entry into cells; Lassa virus pseudotype entry inhibition, cell reporter; control for the full effect not named in the record; Potency, µM (top dose mostly 37.9 µM), without a hit: at the top dose activity change, negative = inhibition, most hits filed as inhibitors; 1.2% of 300,000 active; AID 540256; active means well fitted inhibition curve with a large enough effect; inconclusive means small, poorly fitted or top-dose-only effect, or effect the other way; inactive means flat fitted curve, though single readings scatter; tested in HEK293 cells; further: on the % scale 0 is the no-effect control and ±100 the full control effect; nearly all actives have a fitted effect of over 50% in size; luciferase read-out
# Cruzain noTriton: inhibitors of Trypanosoma cruzi cruzain without detergent | P25779 | purified cruzain, Z-FR-AMC fluorescence, no detergent | Potency, µM, without a hit: max response, negative = inhibition, actives largely listed as inhibitors | 2.3% of 200,000 active | AID 1476;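 further: plate controls were enzyme without inhibitor for no effect and buffer without enzyme for full effect; nearly all actives have a fitted effect of over 40% in size; top concentration of the series not given in the record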
#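 Detergent-free condition (0.00005% Triton X-100) in acetate buffer pH 5.5 with DTT. 1.5 nM enzyme and compound were pre-mixed 15 min, then 2 uM Z-FR-AMC substrate added; reaction progress from fluorescence change between first and third reads (60 s).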
# The depositor's hits bear a star; ? = inconclusive; · = no result given; & = joins results of further samples; [ ] = dose if it differs, or a comment. Unless noted, the call rests on the fitted dose curve; in most records, active means well fitted curve in the direction sought with a large enough effect; inconclusive means small, poorly fitted or top-dose-only effect, or another doubt; inactive means no such curve, though single readings can be large; an effect the other way counts as inactive or inconclusive. Potency means the concentration at half of the fitted maximal effect.
SMILES,SARS PLpro yeast,StopGo reporter,NS1 inh,MARV entry inh,Cruzain inh Det,RE007 growth inh,Lassa entry inh,Cruzain noTriton
COc1ccccc1CNS(=O)(=O)c1ccc2c(c1)oc(=O)n2C,1%,2%,-1%,·,2.4%,9%,·,-3%
COc1cc(C2C(C(=O)C(C)(C)C)=C(O)C(=O)N2Cc2ccccc2)ccc1O (configuration not stated),1%,0%,?,·,·,10%,·,·
COCCOC(=O)C1=C(N)Oc2c(c(=O)oc3ccccc23)C1c1ccncc1 (configuration not stated),2%,1%,-12%,?,6.8%,-7%,25%,0%
Cc1cc2ccccc2n2c(SCC(=O)Nc3cccc(C(F)(F)F)c3)nnc12,·,14%,·,6%[46.1 µM],-1.4%,·,10%[46.1 µM],5%
NC(=O)c1ccccc1NC(=O)c1ccccc1S(=O)(=O)c1ccccc1[N+](=O)[O-],2%,-4%,-6%,?,-0.1%,-2%,7%,7%
Cc1ccc(C(=O)NCC(=O)OC(C)C(=O)NCCC2=CCCCC2)cc1C (configuration not stated),-18%,-20%,-8%,?,22µM*,-2%,-9%,?
CCCc1cc(C(=O)Nc2cccnc2Cl)no1,-18%,64%[activator],-45%,?,4.5%,-3%,11%,10%
COc1ccc(OC)c(NC(=S)Nc2ccccc2)c1,-1%,37%[activator],9%,1%,·,6%,-3%,·
CCCNC(=O)NC(=O)COC(=O)c1ccc(OC)c(S(=O)(=O)N2CCCc3ccccc32)c1,-1%,-16%,13%,0%&0%,-5.1%,12%,?,14%
CCOCc1nnc(NC(=O)C2CC(=O)N(CCc3ccc(F)cc3)C2)s1 (configuration not stated),0%,-2%,8%,5%[46.1 µM],·,4%,-3%,·
CCOc1cc(C2C(C(=O)OC)=C(C)NC3=C2C(=O)c2ccccc23)cc(Cl)c1O (configuration not stated),·,?,·,-12%[46.1 µM],-8.7%,·,-12%[46.1 µM],0%
COc1ccc(OC)c(S(=O)(=O)N2CCC(C(=O)N(C)Cc3ccccc3)CC2)c1,-1%,-24%,-7%,-26%[46.1 µM],·,22%,?,·
CCc1nc(C)cn1S(=O)(=O)c1cc(OC)c(C)cc1C,9%,-16%,-14%,?,3.5%,11%,?,-3%
COc1ccccc1CNC(=O)CNC(=O)[C@@H]1Cc2ccccc2CN1,-5%,7%,-16%,·,·,-3%,·,·
Nc1nc(-c2ccccc2Cl)cs1,·,58%[activator],·,?,·,-24%,18%,·
CCCn1c(N)c(N(CCOC)C(=O)c2ccc([N+](=O)[O-])cc2Cl)c(=O)[nH]c1=O,-1%,-10%,14%,-2%[46.1 µM],·,-14%,·,·
CCC(C)(C)NC(=O)C(c1ccc(C)o1)N(Cc1cccs1)C(=O)Cn1nnc2ccccc21 (configuration not stated),4%,12%,-9%,?,0.8%,-5%,-14%,?
COC(=O)c1ccc(Nc2nc3ccc(C)cc3n3cnnc23)cc1,0%,?,-1%,?,·,11%,7%[46.1 µM],·
C=CCNc1nc(N)c(C(=O)c2ccc3c(c2)OCO3)s1,-1%,64%[activator],?,?,-3.7%,15%,2%,-5%
CCOC(=O)c1ccc(NC(=O)C2CCCN(S(=O)(=O)c3ccc(F)cc3)C2)cc1 (configuration not stated),-11%,22µM*,17%,?,-11%,3%,?,16%
COc1ccc(NC(=O)CCSCCC(=O)Nc2ccc(OC)cc2OC)c(OC)c1,-2%,-6%,15%,1%,-0.3%,11%,-7%,2%
O=C(CC1SCCNC1=O)Nc1ccc(Cl)c(Cl)c1 (configuration not stated),0%,41%[activator],1%,·,·,-12%,·,·
CCCCN(C)CCNC(=O)c1ccc2c(=O)n(CCc3ccccc3)c(=O)[nH]c2c1,·,-5%,·,-13%[46.1 µM],-2.3%,·,?,11%
CCOC(=O)c1oc2ccccc2c1COC(=O)CNC(=O)c1ccccc1OC,-1%,-4%,·,16%,·,-7%,13%[46.1 µM],·
S=C(NCc1cccnc1)Nc1ccc(Cl)c(Cl)c1,-6%,·,1%,-22%,-13%,-10%,2%,1%
C=Cc1ccc(CSc2cc(C)nc3nc(C)nn23)cc1,0%,?,5%,·,·,4%,·,·
O=C(CCc1nc2ccccc2[nH]c1=O)OCc1ccc(S(=O)(=O)N2CCOCC2)cc1,-2%,11%,-10%,24%,-1.4%,-7%,-4%,8%
CCOc1c2ccc(C(=O)NCc3cc(C(F)(F)F)cc(C(F)(F)F)c3)cc2nn1CCOC,4%,-10%,?,-4%,-7.8%,8%,·,?
O=C(C1CCCO1)N1CCN(S(=O)(=O)c2ccc(F)cc2)CC1 (configuration not stated),0%,-5%,·,25%,·,24%,17%[46.1 µM],·
O=C(NC1CCCCCC1)c1c2c(nc3ccccc13)CCN(Cc1ccccc1)C2,0%,-16%,16%,?,-0.1%,6%,-11%,8%
Cc1nn2c(=O)cc(COC(=O)c3cccc(NC(=O)COc4ccc(C)c(C)c4)c3)nc2s1,·,15%,·,·,-0.1%,·,10%[46.1 µM],-7%
CC(C)(C)c1cc(=O)[nH]c(SCc2ccccc2Cl)n1,-4%,-13%,-3%,2%[46.1 µM],·,1%,-5%,·
CCOC(=O)N/N=C/c1cn(Cc2ccc(F)cc2)c2ccccc12,3%,-7%,?,·,·,2%,·,·
CCCCNC(=O)c1cn(CC)c2ccc(S(=O)(=O)N3CCCC3)cc2c1=O,1%,0%,10%,·,·,9%,·,·
O=C(NC1CC1)C1=C[C@H](C2CCCCC2)C[C@H](OCCCCO)O1,4%,4%,1%,·,·,2%,·,·
CCn1c(NCc2cccc(OC)c2OC)nc2ccccc21,-11%,42%[activator],-4%,1%,-1.0%,6%,5%,-5%
CC(C)CCn1c(CN2CCN(c3cccc(Cl)c3)CC2)nc2c1c(=O)n(C)c(=O)n2C,1%,2%,9%,·,·,-4%,·,·
CCCCCCCC1Cc2ccccc2C(C(C(=O)OC)C(=O)OC)N1C(=O)OC (configuration not stated),·,·,·,-2%&-2%&-2%&-2%[14.2 µM],-1.2%,·,?,?
COc1cc(C)c(Cl)cc1S(=O)(=O)NCc1ccco1,-3%,51%[activator],-2%,-15%[46.1 µM],3.0%,3%,-3%,10%
COc1ccccc1C(=O)NCCNc1nc2cc(C)cc(C)c2cc1C#N,1%,-14%,21%,·,·,4%,·,·
O=C(NCc1cccnc1)/C(=C\c1ccc(-c2ccc(Br)cc2)o1)S(=O)(=O)c1ccccc1,?,3.2µM*,3%,?,-9.6%,0%,13µM*,18%
O=C(CCCn1c(=S)[nH]c2cc3c(cc2c1=O)OCO3)NCCc1ccccc1Cl,0%,0%,-15%,·,·,6%,·,·
Cc1ccc2c(c1)C(c1ccc([N+](=O)[O-])cc1)=NNC(c1ccc(Br)cc1)=N2,-6%,11%,13%,?,-0.3%,13%,-3%,?
O=C(NCc1ccco1)c1ccc(Cl)nc1,-1%,31%[activator],-1%,·,·,-2%,·,·
O=C(Nc1ccccc1)OC1C2CCC1C(N1CCCCC1)CC2 (configuration not stated),-1%,-12%,-12%,?,6.6%,8%,8%,11%
COc1ccc(Cl)cc1Nc1nc(C)nc2c1oc1ccccc12,-1%,?,7%,·,·,-1%,·,·
CCC1CCCCN1CCCNC(=O)Cn1nc(C)n2nc(-c3ccccc3)cc2c1=O (configuration not stated),6%,-20%,1%,·,·,-1%,·,·
CC1CN(C(=O)Nc2ccc3snnc3c2)c2ccccc21 (configuration not stated),-26%,31%[activator],-36%,·,-7.1%,-2%,·,-11%
O=C(CCNC(=O)c1ccccc1)NCC1CCCCC1,3%,-24%,·,1%[46.1 µM],·,1%,19%[46.1 µM],·
Fc1ccccc1N1CCN(c2nccn3nc(-c4ccc(Br)cc4)cc23)CC1,·,-10%,·,-3%[46.1 µM],-2.3%,·,4%[46.1 µM],1%
Cc1ccccc1C(=O)c1cccn1CC(=O)NCCCc1ccccc1,-1%,-12%,-15%,·,·,-1%,·,·
Cc1ccc(NC(=O)Nc2cccs2)c(C)c1,·,?,·,9%[46.1 µM],-12%,·,·,-9%
CCOC(=O)c1cc(-c2ccc(F)cc2)n(CCC(=O)NCc2ccc(C)cc2)c1C,·,16%,·,·,-8.8%,·,-30%[46.1 µM],?
O=C(c1ccc(Cl)cc1)c1ccc(CN2C(=O)c3ccccc3C2=O)o1,-2%,-4%,-53%,4%,-5.4%,-12%,?,0%
CSc1nc(SCC(N)=O)c2c3c(sc2n1)CN(C)CC3,4%,0%,7%,8%,-9.8%,19%,2%,-28%
CC(=O)c1ccc(OCc2cc(C(=O)NC3CCCCC3)no2)cc1,3%,0%,-5%,?,·,-1%,?,·

# Further results
SMILES,SARS PLpro yeast,StopGo reporter,NS1 inh,MARV entry inh,Cruzain inh Det,RE007 growth inh,Lassa entry inh,Cruzain noTriton
CC1=C(C(=O)Nc2ccccn2)C(c2ccc(Cl)cc2Cl)NC(=S)N1 (configuration not stated),1%,28%,·,-8%[46.1 µM],·,-17%,4%,·
CCOC(=O)c1ccc(NC(=O)CC2OCCN(CC)C2=O)cc1 (configuration not stated),-36%,2%,-71%,12%,0.7%,4.5µM*,-4%,-11%
O=C(NCc1ccncc1)c1cncc(Br)c1,1%,13%,17%,·,·,8%,·,·
O=C1CSC(c2cccnc2)N1c1ccc(F)cc1 (configuration not stated),9%,12%,12%,?,0.0%,13%,16%,1%
CCOc1cc(C2C(C(=O)OC)=C(C)NC3=C2C(=O)c2ccccc23)c(Br)cc1O (configuration not stated),·,-35%,·,·,-4.0%,·,?,-2%
Cc1cc(S(=O)(=O)Nc2ccc(O)c(Sc3nc4ccccc4s3)c2)ccc1Cl,·,8%,·,12%[46.1 µM],-4.8%,·,1%[46.1 µM],-7%
COc1cc(C2C(C(=O)Nc3ccc(C)cc3C)=C(C)Nc3nc(SCc4ccccc4)nn32)cc(OC)c1OC (configuration not stated),·,-2%,·,4%[46.1 µM],-1.4%,·,-32%[46.1 µM],4%
COc1ccc(C)cc1NC(=O)c1nnn(Cc2cccc(C(F)(F)F)c2)c1N,-7%,-1%,·,-23%[46.1 µM],·,-8%,-26%,·

# Source: PubChem (National Center for Advancing Translational Sciences (NCATS))
